Screens deposited in PubChem BioAssay by National Center for Advancing Translational Sciences (NCATS).
VDR inh = blocks the human vitamin D receptor; 400,000 tested, 0.93% active; P11473; AID 504847; Potency, µM, for inactives: max response, negative = inhibition, usual class: inhibitors; VDR-SRC2-3 peptide fluorescence polarization, 2 h; active means well fitted inhibition curve with a large enough effect; inconclusive means small, poorly fitted or top-dose-only effect, or another doubt; inactive means no such curve, though single readings can be large or run the other way; further: series mostly up to about 120 µM
Target sequence (P11473 whole entry, looked up): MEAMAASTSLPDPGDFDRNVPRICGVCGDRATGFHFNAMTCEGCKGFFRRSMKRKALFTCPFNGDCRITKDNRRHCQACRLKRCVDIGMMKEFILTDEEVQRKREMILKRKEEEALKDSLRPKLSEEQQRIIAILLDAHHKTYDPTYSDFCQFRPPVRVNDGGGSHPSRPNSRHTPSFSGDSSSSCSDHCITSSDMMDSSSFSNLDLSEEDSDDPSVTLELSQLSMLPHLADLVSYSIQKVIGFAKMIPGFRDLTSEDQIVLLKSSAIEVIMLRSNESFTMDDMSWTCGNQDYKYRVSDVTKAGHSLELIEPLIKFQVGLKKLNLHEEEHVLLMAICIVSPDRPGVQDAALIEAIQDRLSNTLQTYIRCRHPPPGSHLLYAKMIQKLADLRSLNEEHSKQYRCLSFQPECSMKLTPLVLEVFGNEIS
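The screen uses fluorescence polarization to detect compounds that interfere with recruitment of the SRC2-3 coactivator peptide to VDR; plates are read after 2 h at room temperature.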
* = called active by the depositor; u = inconclusive; & = joins results of further samples. On the % scale 0 is the no-effect control and ±100 the full control effect; potency means the concentration at half of the fitted maximal effect. Some of the compounds tested; the hit share may differ from the screen's.

Structure,VDR inh
COc1ccc(NC(=S)N2CCC(C(O)(c3ccccc3)c3ccccc3)CC2)cc1,3%
C=CCNC(=O)c1ccc(C)c(Br)c1,-6%
Cc1n[nH]c(C)c1N1C(=O)c2cccc3c(N4CCCCCC4)ccc(c23)C1=O,6%
CCC(CC)NCc1ccc(OC)cc1OC,3%
O=[N+]([O-])c1cc(S(=O)(=O)NCCCN2CCOCC2)ccc1Cl,-9%
O=C(/C=C/c1ccc(Cl)c(Cl)c1)n1cccn1,-20%
C=CCn1c(O)c(C2=c3ccccc3=NC2=O)c2ccccc21,20µM*
CCCCn1c(N)c(N(CC(C)C)C(=O)c2cccc(OCc3ccccc3)c2)c(=O)[nH]c1=O,-13%
COC(=O)CCN(C1CCCCC1)S(=O)(=O)c1ccc(S(=O)(=O)NC2CCCCC2)cc1,21%
Nn1c(=S)[nH]nc(Cc2ccc(O)cc2)c1=O,4%
CCOC(=O)c1ccc(CNC(=O)Cn2nnc(-c3ccc(C)cc3)n2)o1,-4%
Cc1ccc(C(CNC(=O)c2ccc(Br)o2)N2CCN(C)CC2)cc1 (stereo not given),-5%

(next part)
Structure,VDR inh
O=C(Cn1c(-c2ccccc2)c[n+]2ccsc12)c1ccc(Br)cc1,5%
Cc1ccc2c(c1)c1c(n2CC(O)Cn2c(C)nc3ccccc32)C(=O)CCC1 (stereo not given),-9%
Cc1ccc(NC(=O)CCN2C(=O)CSC2=O)c(C)c1,-2%
CCc1ccccc1NC(=O)COc1ccc(N2CC(C(N)=O)CC2=O)cc1 (stereo not given),-7%
COc1ccc(F)cc1C(=O)C1CCCN(Cc2cccn2-c2cccnc2)C1 (stereo not given),-9%
CC(C)(C)OC(=O)N1CCC(c2c(C(=O)N3CCN(c4ccccc4F)CC3)cnn2-c2ccccc2Cl)CC1,8%
C/C(=N\NC(=O)Cc1csc(N2CCOCC2)n1)c1ccc(Cl)c(Cl)c1,-29%
COc1ccc(-c2csc(-c3cccs3)n2)cc1OC,-9%
Cc1cccc(S(=O)(=O)c2cn(C)c3cc(N4CCN(c5ccc(F)cc5)CC4)c(F)cc3c2=O)c1,-4%
O=C(NCc1cccc(Cl)c1)C1=CC=CN2CCS(=O)(=O)N=C12,7%
CCCCNc1nc(Oc2ccc(=O)n(C)n2)nc(N2CCOCC2)n1,10%
COc1cc2c(cc1OC)n(CC(=O)c1ccc(F)cc1)c(=O)n1nc(CCn3nc(C)cc3C)nc21,4%

Random excerpt: 2 records from the list.
Structure,VDR inh
O=C(Cn1c(-c2ccccc2)c[n+]2ccsc12)c1ccc(Br)cc1,5%
Cc1cccc(S(=O)(=O)c2cn(C)c3cc(N4CCN(c5ccc(F)cc5)CC4)c(F)cc3c2=O)c1,-4%

(listing goes on)
Structure,VDR inh
OCCSc1nc(N2CCOCC2)nc(N2CCOCC2)n1,-2%
O=C1CN(C(=O)c2ccc(S(=O)(=O)N3CCCCC3)cc2)C(c2ccc(F)cc2)c2cc(Br)ccc2N1 (stereo not given),0%
Cc1cc(NC(=O)c2ccccc2F)cc(C)c1OCC(=O)N1CCOCC1,-10%
COc1ccc2c(C)cc(SCC(=O)N3CCOCC3)nc2c1,-5%
COc1ccc(CCNC(=O)C23CCC(C)(C(=O)C2Br)C3(C)C)cc1OC (stereo not given),17%
O=C(CCC(=O)c1ccccc1)NCc1cccc(C(F)(F)F)c1,-16%
Cc1ccc(-c2cc(C(F)(F)F)n3nc(C(=O)Nc4sc5c(c4C#N)CCC(C)C5)cc3n2)cc1 (stereo not given),1%
CC1CCN(c2nc(-c3ccccc3)cc(C(F)(F)F)n2)CC1,-4%
COCCNC(=O)COC(=O)c1cc(-c2ccc(OC)cc2)nc2ccccc12,5%
CC1=C(C(=O)N2CCN(C(=O)c3ccco3)CC2)C2(CCC(C)CC2)OC1=O (stereo not given),-5%
COc1ccccc1-c1coc2cc(OC(=O)N3CCOCC3)ccc2c1=O,9%
CCOC(=O)c1ccc(N=C2NC(=O)CS2)cc1,-10%

(next part)
Structure,VDR inh
COc1ccc(S(=O)(=O)N2CCN(c3c(C)cccc3C)CC2)cc1OC,-19%
CCOC(=O)c1nsnc1NCCSC(=N)N,-1%
Cn1ncc(Br)c1N1C(=O)CCC1=O,-2%
Cc1cc(C)cc(OCCNC(=O)c2cc(S(=O)(=O)N3CCOCC3)ccc2F)c1,-3%
Cc1ccccc1NC(=O)Cn1nnc(C(=O)NCc2ccco2)c1N,-25%&-24%
NNC(=O)c1cc(-c2cccs2)nc2ccccc12,u
COc1cc2c(cc1OC)-c1cc(Nc3ccc(C(=O)O)cc3)nc(=O)n1CC2,-27%
CCCCNC(=O)c1c(C)oc2ncn(CC(C)C)c(=O)c12,5%
Cc1c(-c2n[nH]c(=S)n2-c2ccc(C(F)(F)F)cc2)nnn1-c1ccccc1,-2%
CC(C)C[C@@H](CN1CCCC1CN1C(=S)NC[C@@H]1Cc1ccc(O)cc1)N1C[C@H](Cc2ccccc2)N(CCc2ccccc2)C1=S (stereo not given in full),11%
CCOC(=O)c1oc2ccccc2c1COC(=O)C(C)NC(=O)c1ccco1 (stereo not given),-12%
CCCCN1CCc2c([nH]c3c(C)cccc23)C1=O,14µM*

Already shown: two of the compounds above.
Structure,VDR inh
COc1ccc(S(=O)(=O)N2CCN(c3c(C)cccc3C)CC2)cc1OC,-19%
CCOC(=O)c1nsnc1NCCSC(=N)N,-1%

Going on with the list.
Structure,VDR inh
CC(=O)Oc1ccc(C2=Cc3ccc(OC(C)=O)cc3OC2C)cc1 (stereo not given),10%
CCOC(=O)C1(CCCc2ccccc2)CCN(C(=O)CN2CCOC2=O)CC1,-11%
COc1ccc(OCCn2cnc3ccccc32)cc1,7%
COc1ccccc1C(=O)CSc1ccccn1,-14%
Cc1cc(C(=O)C(C(c2ccccc2)N2CCOCC2)N2CCOCC2)ccc1Cl (stereo not given),0%
CC(C)NC(=O)c1ccc(-c2ccc(Cl)c(C(F)(F)F)c2)o1,-3%
Cc1c(C=C2C(=O)c3ccccc3C2=O)cc(C#N)n1C,6%
O=C(O)CSc1c2c(nc3cc(C(=O)Nc4cccc(C(F)(F)F)c4)ccc13)CCCC2,u
Clc1ccccc1-c1cc(COc2ccc3ccccc3c2)no1,-4%
Cn1cccc1Cc1nnc(SCC(=O)NCc2ccco2)n1-c1ccc(F)cc1,-1%
COCCNC(=O)CCSCc1ccccc1F,-16%
Cc1cc(C(=O)O)ccc1NCc1ccncc1,-3%

In the list so far, these have a cyano group:
Structure,VDR inh
Cc1ccc(-c2cc(C(F)(F)F)n3nc(C(=O)Nc4sc5c(c4C#N)CCC(C)C5)cc3n2)cc1 (stereo not given),1%
Cc1c(C=C2C(=O)c3ccccc3C2=O)cc(C#N)n1C,6%

The listing continues:
Structure,VDR inh
CC(C)c1ccc(NC(=O)C2CCCN2S(=O)(=O)c2ccc3nc(-c4ccccc4)[nH]c3c2)cc1 (stereo not given),16%
O=C(CCO)c1ccc(O)cc1,-13%
COc1ccc(OC)c(/C=C/C(=O)OCC(=O)NCc2cccs2)c1,-3%
S=c1[nH]nc(-c2ccccc2)n1/N=C/c1cccc(Cl)c1,-4%
CCOc1ccc(N2C(N)=NC(N)=NC2(C)C)cc1,7%
COc1ccc2[nH]c3c(c2c1)CCN1C(=O)C(CC(=O)NCc2cccc(C(F)(F)F)c2)C[C@H](C(=O)N(C(C)C)C(C)C)[C@@]31C (stereo not given in full),9%
CC(=O)OC(C)(C)/C=C/C(=O)[C@](C)(O)C1[C@H](O)C[C@@]2(C)C3CC=C4C(C=C(O[C@@H]5O[C@H](CO)[C@@H](O)[C@H](O)[C@H]5O)C(=O)C4(C)C)[C@]3(C)C(=O)C[C@]12C (stereo not given in full),-13%
Cc1ccc2c(Cl)c(C(=O)NCC3CCCO3)sc2c1 (stereo not given),-7%
CCOc1c(C)cnc2c1c(=O)n(Cc1ccccc1F)c(=O)n2C,3%
Nc1ccccc1S(=O)(=O)NCCCCc1ccccc1,-17%
O=C(CSc1nnc(CCCO)n1-c1ccccc1)NCCc1ccccc1,3%
N#C/C(=C\Nc1ccccc1SC(F)(F)F)c1nc(-c2ccccc2)cs1,-6%

Following part.
Structure,VDR inh
CC(NS(=O)(=O)c1ccccc1)C(c1cccs1)N1CCOCC1 (stereo not given),4%
CCn1ncc(NC(=S)Nc2ccc(OC)c(OC)c2)c1C(N)=O,0%
CCOC(=O)c1scc(-c2ccc(C)cc2)c1S(=O)(=O)Nc1cccc(CC)c1,0%
COc1ccc(CC2S/C(=C(\C#N)C(=O)NCc3ccco3)N(c3ccc(C)cc3)C2=O)cc1 (stereo not given),21%
O=C1OCCC1Sc1nnc(-c2cccnc2)n1-c1ccccc1F (stereo not given),2%
CCC(C)NC(=O)Cn1c(=O)n(-c2ccccc2)c(=O)c2ccc(C(=O)NCc3ccco3)cc21 (stereo not given),9%
COc1ccc(Oc2ncc3nc(C)c(=O)n(C[C@H]4CCCO4)c3n2)cc1,0%
CC(C)(C)c1cc(CCC(=O)NN)cc(C(C)(C)C)c1O,12%
Cc1cc(SCC#N)n2nc(C)c(-c3ccc(Cl)cc3)c2n1,-10%
CNS(=O)(=O)c1cccc(C(=O)OCc2cc(Cl)cc3c2OCOC3)c1,-14%
OCCNCc1c(OCc2ccc(Cl)cc2)ccc2ccccc12,-21%
O=C(/C=C/c1ccc(O)cc1)OCc1occc(=O)c1O[C@@H]1OC(CO)[C@@H](O)[C@H](O)[C@@H]1O (stereo not given in full),-5%

More compounds:
Structure,VDR inh
CCCC1(CCC)NC(=O)N(CC(=O)Nc2ccc3c(c2)OCCO3)C1=O,-9%
CCOC(=O)C1=C(C)N=c2s/c(=C\c3ccc(OCC(=O)O)cc3)c(=O)n2C1c1ccc(Cl)cc1 (stereo not given),79µM*
CCCCN(CC)CCCNC(=O)c1sc2nc(C)cc(C)c2c1-n1cccc1,7%
Cc1ccc(-n2ncc3c(N4CCN(Cc5ccccc5)CC4)ncnc32)cc1C,0%
NC(CO)(CO)COCc1ccccc1,13%
O=C(CSc1ccc(-c2cccnc2)nn1)N1CCCCC1,-34%
Cn1c(=O)n(Cc2ccccc2)c(=O)c2c1nc1n2CCCN1C1CCCCC1,21%
CN(Cc1ccccc1)C(=O)C(C(=O)c1ccc(F)cc1)n1cc(Cl)ccc1=O (stereo not given),-16%
Clc1ccc(Nc2ncnc3c2cnn3-c2ccccc2)cc1,-12%
COc1ccc(NC(=O)COC(=O)CCc2ccc(S(=O)(=O)N3CCOCC3)cc2)cc1Cl,-4%
COc1ccc(CNC(=S)N/N=C(/C)c2ccccc2)cc1,-6%
CCC(C)NC(=O)CS(=O)(=O)Cc1nc(-c2cccc(OC)c2)oc1C (stereo not given),-8%

Next section:
Structure,VDR inh
CS(=O)(=O)c1ccc2nc(NC(=O)C3CC3)sc2c1,-24%
Cc1cc([N+](=O)[O-])nn1CC(=O)NCc1ccc(Cl)cc1,-2%
CCN(CC)S(=O)(=O)c1cc([N+](=O)[O-])ccc1N1CCC(C(N)=O)CC1,10%
O=C(NC(=S)NCc1ccccc1)c1ccccc1,-12%
COC(=O)c1n[nH]n(-c2cc(Cl)cc(Cl)c2)c1=O,-12%
COCCn1c(-c2ccc(-c3ccc([N+](=O)[O-])cc3Br)o2)nc2c1c(=O)[nH]c(=O)n2CC(C)C,-3%
O=C(COC(=O)c1cccnc1)Nc1cccc(Cl)c1,11%
Cc1ccc(C2=CSC3=NCCN23)cc1,16%
CCOc1ccc(C(=O)Nc2ccc(S(=O)(=O)N3CCCCC3c3cccnc3)cc2)cc1 (stereo not given),-5%
O=[N+]([O-])c1cccc(CSc2ncnc3ccccc23)c1,-12%
CC1CC(C)CN(C(=O)COC(=O)c2cc3ccccc3oc2=O)C1 (stereo not given),-8%
CCC(C)NC(=O)c1ccc(NS(=O)(=O)c2ccc3[nH]c(=O)[nH]c3c2)cc1 (stereo not given),11%

Going on with the list.
Structure,VDR inh
COc1ccc(NC(=O)Cn2c(=O)n(Cc3nc(-c4ccccc4)no3)c(=O)c3cc4c(cc32)OCO4)cc1Cl,19%
C=CCOc1ccccc1CN1CCC(C(=O)Nc2cccc(-c3ccn[nH]3)c2)CC1,-2%
CCC(C)C(NC(=O)OCc1ccccc1)C(=O)NCC(c1ccccc1)N(C)C (stereo not given),-10%
O=C(CCCNS(=O)(=O)c1cccc2nsnc12)NCCN1CCN(c2ccccc2F)CC1,10%
CCOC(=O)C1CCN(C(=S)Nc2cc(C)ccc2C)CC1,-8%
Cc1ccc2c(Cl)c(Cc3ccccc3)c(=S)[nH]c2n1,-18%
CCN(CC)CCNC(=O)CCCNC(=O)Cn1cnc2sc(C)c(C)c2c1=O,5%
Cn1c(SCC(=O)NCc2cccs2)nnc1-c1ccc(S(=O)(=O)N2CCCC2)cc1,-5%
CCc1ccc(S(=O)(=O)c2cn(Cc3ccccc3)c3cc(N4CCCC4)c(F)cc3c2=O)cc1,15%
O=C1CC(=C(c2ccccc2)c2ccccc2)C(=O)N1CCCCN1CCN(c2cccc(Cl)c2)CC1,15%
C/C(=N\NC(=O)C1CC1)c1ccc(Cl)cc1,6%
Fc1ccc(NCc2cccnc2)cc1,11%
O=C(O)c1cccc(Nc2ccc([N+](=O)[O-])c3nonc23)c1,10%

Individual results from above:
Fc1ccc(NCc2cccnc2)cc1 – VDR inh: 11%
CCc1ccc(S(=O)(=O)c2cn(Cc3ccccc3)c3cc(N4CCCC4)c(F)cc3c2=O)cc1 – VDR inh: 15%
C=CCOc1ccccc1CN1CCC(C(=O)Nc2cccc(-c3ccn[nH]3)c2)CC1 – VDR inh: -2%
